Wnt bcat act: Wnt/beta-catenin pathway activation; Wnt/beta-catenin reporter cell assay, activator, plate reader; activation, % at 9.35 µM; 300,000 tested, 1.2% active; AID 743398; in the data active = activation above about 30%, passing the limit was not always enough;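 note: 0% = neutral control wells and 100% = positive control wells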
LANA DNA inh: inhibitors of KSHV LANA C-terminal domain DNA binding. inhibition, % at 9 µM. MBP-C-LANA/FAM-LBS DNA binding, fluorescence polarization. 340,000 tested, 0.078% active;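 active = highest replicate inhibition at or above 60% at 9 µM, even if other replicates fall short; inactive = all replicates below 60% inhibition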;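 note: 0% = neutral control wells and 100% = 4 µM acridine orange control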
cardiac RTF act: increases calcium sensitivity of human cardiac regulated thin filaments | IANBD-labeled TnC RTF fluorescence at EC20 calcium; 0% EC20 calcium, 100% full calcium | activation, % at 7.2 µM | P19429+P45379 | 340,000 tested, 0.24% active | AID 493008;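 active = activation above the mean over all tested compounds plus 3 SD, cut at about 30% in these data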;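 note: rise in fluorescence read as greater calcium sensitivity of cardiac thin filaments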
DSG3 Ab inh: inhibitors of pemphigus antibody binding to human desmoglein-3. binding (percent of control), % at 10 µM. AID 588358. 310,000 tested, 0.48% active. DSG3-coupled beads, scFv-anti-DSG3-GFP binding, flow cytometry; active compounds read low. P32926;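 active = binding more than 3 SD below its plate's average and above zero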;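 note: hits lower antibody fragment binding to DSG3; some compounds called inactive have numbers as strong as hits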
V-ATPase pHluor: alters yeast V-ATPase proton transport | S. cerevisiae, pHLuorin cytosolic pH fluorescence | response, % at 10 µM | 350,000 tested, 0.37% active; in the data active = response mostly above about 7.3%, no sharp cut-off; inactive = mostly below about 5.4%; note: actives read high; inactives centre near 0; some compounds called inactive have numbers as strong as hits; reference of the scale not given here
RTF Ca sens inh: cardiac RTF calcium desensitization; P19429+P45379; IANBD-labeled cardiac RTF, Ca2+ fluorescence; inhibition, % at 7.15 µM; 340,000 tested, 0.12% active;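 active = inhibition above the mean inhibition of all tested compounds plus 3 SD, cut at about 17% in these data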;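 note: assay run at fixed EC70 calcium of 1.6 mM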
Arr AP2 block: inhibitors of human beta-arrestin and AP2 interaction | 340,000 tested, 0.31% active | inhibition, % at 10 µM | FITC-arrestin peptide / GST-AP2 beads, flow cytometry; AP2 beta2 appendage carries R879A mutation | AID 504490;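 active = inhibition above a set limit, near 3 SD of compounds lacking own fluorescence, cut at about 54% in these data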;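 note: plate controls were DMSO wells for no effect and 5 µM unlabelled arrestin peptide for full effect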
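test system = AP2 appendage R879A on GSH beads | buffer or medium = PBS plus Tween 20 (0.05%) and BSA (0.1%) | incubation = 12 min plus 1 h, RT | detection = bead flow cytometry, FITC channel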
Keap1 Nrf2 FP: inhibitors of human Keap1-Nrf2 protein-protein interaction. 340,000 tested, 0.15% active. inhibition, % at 9.4 µM. Keap1 Kelch-Nrf2 peptide fluorescence polarization, 1536-well; in the data active = inhibition above about 12%;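 note: human Keap1 Kelch domain with fluorescein labeled Nrf2 9mer peptide probe; 0% = neutral control wells and 100% = peptide positive control; higher means more block of Keap1 binding to Nrf2 peptide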
Target sequence (Q14145 whole entry, looked up, the tested form may be a part): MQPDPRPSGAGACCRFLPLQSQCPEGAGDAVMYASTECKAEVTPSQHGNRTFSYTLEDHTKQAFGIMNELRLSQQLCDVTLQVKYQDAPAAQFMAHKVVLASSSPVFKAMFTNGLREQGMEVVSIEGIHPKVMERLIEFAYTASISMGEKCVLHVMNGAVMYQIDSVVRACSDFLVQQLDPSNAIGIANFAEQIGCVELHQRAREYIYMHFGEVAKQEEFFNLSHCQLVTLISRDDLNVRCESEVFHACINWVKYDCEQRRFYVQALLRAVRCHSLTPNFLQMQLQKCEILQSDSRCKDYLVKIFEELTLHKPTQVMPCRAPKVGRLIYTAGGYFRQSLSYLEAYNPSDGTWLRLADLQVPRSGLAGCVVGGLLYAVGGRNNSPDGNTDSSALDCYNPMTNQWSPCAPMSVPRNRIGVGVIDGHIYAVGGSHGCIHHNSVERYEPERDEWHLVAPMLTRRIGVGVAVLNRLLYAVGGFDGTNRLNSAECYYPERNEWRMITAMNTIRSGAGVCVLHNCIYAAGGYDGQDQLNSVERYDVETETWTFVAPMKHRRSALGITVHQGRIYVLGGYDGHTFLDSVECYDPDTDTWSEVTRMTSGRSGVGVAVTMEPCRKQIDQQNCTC
* = called active by the depositor; . = no result given; & = joins results of further samples. This is a subset; count on the stated rates, not on these rows.

Labels used below: A = Wnt bcat act; B = LANA DNA inh; C = cardiac RTF act; D = DSG3 Ab inh; E = V-ATPase pHluor; F = RTF Ca sens inh; G = Arr AP2 block; H = Keap1 Nrf2 FP
CN1C[C@H](C(=O)NC2(C)OC3(O)[C@@H]4CCCN4C(=O)[C@H](Cc4ccccc4)N3C2=O)CC2c3cccc4[nH]cc(c34)C[C@H]21 (some centres not stated)
  A: -3	B: 3.7	C: 2	D: .	E: -7	F: 3	G: -9	H: -2
O=C(Nc1nnc(-c2ccccc2)o1)c1ccc(Cl)cc1
  A: .	B: 0.5	C: 2	D: 106	E: 2	F: 12	G: -5	H: 3
CN(C)CC/C=C1/c2ccccc2Sc2ccc(Cl)cc21
  A: 0&4	B: 1.5	C: 6	D: 115&105	E: -1&-14	F: 6	G: -4&1	H: -6
CC(C)(C)C(=O)OCOC(=O)[C@@H]1N2C(=O)[C@@H](N=CN3CCCCCC3)[C@H]2SC1(C)C
  A: -5	B: 0.9	C: 9	D: .	E: -3	F: -1	G: -2	H: 0
COc1cc2c(c(OC)c1OC)-c1ccc(OC)c(=O)cc1C(NC(C)=O)CC2 (configuration not stated)
  A: -14	B: -8.1	C: -4	D: 100	E: 6	F: 4	G: -15	H: 2
CC(=O)O[C@H]1C(=O)[C@@]2(C)C([C@H](OC(=O)c3ccccc3)[C@]3(O)C[C@H](OC(=O)[C@H](O)[C@@H](NC(=O)c4ccccc4)c4ccccc4)C(C)=C1C3(C)C)[C@]1(OC(C)=O)CO[C@@H]1C[C@H]2O (some centres not stated)
  A: 2	B: 3.5	C: -1	D: 93	E: -1	F: 2	G: 9	H: -2
CC1CCc2cc(F)cc3c(=O)c(C(=O)O)cn1c23 (configuration not stated)
  A: -1	B: -2.9	C: 2	D: 114	E: -1	F: 3	G: 8	H: 2
Clc1ccc(C(c2ccccc2Cl)C(Cl)Cl)cc1 (configuration not stated)
  A: 1	B: 2.0	C: -1	D: 100	E: 8	F: 5	G: -4	H: -6
O=CC(O)C1OC(=O)C(O)C1O (configuration not stated)
  A: 0	B: 22	C: 0	D: 86*	E: 3	F: 1	G: 4	H: -3
CCC1NC(=O)c2cc(S(N)(=O)=O)c(Cl)cc2N1 (configuration not stated)
  A: 1	B: -0.1	C: 2	D: 98	E: 3	F: 2	G: 0	H: -2
CCCn1c(=O)[nH]c(=O)c2[nH]cnc21
  A: 1	B: -2.6	C: 3	D: 106	E: 4	F: 4	G: 8	H: -1
COC(=O)[C@H]1[C@H]2C[C@H]3c4[nH]c5ccccc5c4CCN3C[C@@H]2CC[C@@H]1O
  A: -2&-3	B: 15&1.6	C: 11&-2	D: 98&101	E: -5&-2	F: -17&12	G: -7&-6	H: -2&-6
CC1(C)S[C@@H]2[C@H](NC(=O)C(NC(=O)N3CCNC3=O)c3ccccc3)C(=O)N2[C@H]1C(=O)O (some centres not stated)
  A: 26	B: -0.1	C: -1	D: 97	E: -3	F: -2	G: -13	H: -1
CC[N+](CC)(CC)CCOc1cccc(OCC[N+](CC)(CC)CC)c1OCC[N+](CC)(CC)CC
  A: .	B: -2.3	C: 2	D: 110	E: 6	F: -6	G: 6	H: -3
OC[C@H]1O[C@@H](O[C@@H]2[C@@H](CO)O[C@@](O)(CO)[C@H]2O)[C@H](O)[C@@H](O)[C@H]1O
  A: -3	B: 1.6	C: 3	D: 118	E: 0	F: 0	G: -2	H: -10
Nc1ncnc2c1ncn2[C@@H]1O[C@H](CO)[C@@H](O)[C@H]1O
  A: 1	B: -1.4	C: 0	D: 96	E: 1	F: -33	G: -1	H: -4
Nc1ccc(S(=O)(=O)c2ccc(N)cc2)cc1
  A: 3&2	B: 1.7	C: -2	D: .	E: 3	F: -1	G: -4	H: -3
CC[N+](CC)(CC)CCC(O)(c1ccccc1)C1CCCCC1 (configuration not stated)
  A: -4	B: -0.9	C: 4	D: 116	E: -4	F: 8	G: -4	H: -4
O=C1CCC(C(=O)O)N1 (configuration not stated)
  A: 0	B: -0.9	C: 7	D: 102	E: 4	F: -12	G: 13	H: -7
N[C@@H](Cc1ccc(O)c(O)c1)C(=O)O
  A: -4	B: 22	C: 6	D: 100	E: -2	F: -3	G: -1	H: -5
NC12CC3CC(CC(C3)C1)C2
  A: -2	B: -1.2	C: 3	D: 99	E: -6	F: 0	G: 2	H: -5
O=C(O)CC(O)C(=O)O (configuration not stated)
  A: -5	B: -1.4	C: 0	D: 104	E: -1	F: -6	G: -2	H: 2
CN1C[C@H](C(=O)N[C@]2(C)O[C@@]3(O)[C@@H]4CCCN4C(=O)[C@H](Cc4ccccc4)N3C2=O)CC2c3cccc4[nH]cc(c34)C[C@H]21 (some centres not stated)
  A: -2&-21	B: 1.1&0.6	C: 13&0	D: 112	E: 5&-1	F: -7&7	G: -4&-7	H: -2&-1
Cc1c(N2C(=O)CSC2c2ccc(F)cc2)c(=O)n(-c2ccccc2)n1C (configuration not stated)
  A: -1	B: -1.0	C: 2	D: .	E: 2	F: -5	G: 35	H: -1
Nc1ccn([C@@H]2O[C@H](CO)[C@@H](O)[C@@H]2O)c(=O)n1
  A: -5&-1	B: -0.3	C: 3	D: 99	E: 6	F: 3	G: 0	H: -4
COc1cc2c(c(OC)c1OC)-c1ccc(OC)c(=O)cc1[C@@H](NC(C)=O)CC2
  A: 1	B: -6.7	C: 3	D: 101	E: 9	F: -12	G: 5	H: 3
CN1CCC(=C2c3ccccc3C=Cc3ccccc32)CC1
  A: -2&-2	B: 0.2	C: 5	D: 115	E: 0	F: 1	G: 1	H: -4
O=c1cc(-c2c(F)c(F)c(F)c(F)c2F)oc2ccccc12
  A: 2	B: -0.2	C: 2	D: 98	E: 1	F: -2	G: -1	H: -1
NC(=O)NO
  A: -2	B: 0.6	C: 0	D: 104	E: -2	F: 6	G: 1	H: 2
CC(C)(C)NC(=O)[C@H]1CC[C@H]2[C@@H]3CC[C@H]4NC(=O)C=C[C@]4(C)[C@H]3CC[C@]12C
  A: -5	B: -1.0	C: 3	D: 109	E: 0	F: 11	G: -2	H: -4

A draw from above in order of molecular weight, ascending.
Labels used below: A = Wnt bcat act; B = LANA DNA inh; C = cardiac RTF act; D = DSG3 Ab inh; E = V-ATPase pHluor; F = RTF Ca sens inh; G = Arr AP2 block; H = Keap1 Nrf2 FP
NC(=O)NO
  A: -2	B: 0.6	C: 0	D: 104	E: -2	F: 6	G: 1	H: 2
O=C1CCC(C(=O)O)N1 (configuration not stated)
  A: 0	B: -0.9	C: 7	D: 102	E: 4	F: -12	G: 13	H: -7
O=C(O)CC(O)C(=O)O (configuration not stated)
  A: -5	B: -1.4	C: 0	D: 104	E: -1	F: -6	G: -2	H: 2
NC12CC3CC(CC(C3)C1)C2
  A: -2	B: -1.2	C: 3	D: 99	E: -6	F: 0	G: 2	H: -5
CCCn1c(=O)[nH]c(=O)c2[nH]cnc21
  A: 1	B: -2.6	C: 3	D: 106	E: 4	F: 4	G: 8	H: -1
N[C@@H](Cc1ccc(O)c(O)c1)C(=O)O
  A: -4	B: 22	C: 6	D: 100	E: -2	F: -3	G: -1	H: -5
Nc1ccn([C@@H]2O[C@H](CO)[C@@H](O)[C@@H]2O)c(=O)n1
  A: -5&-1	B: -0.3	C: 3	D: 99	E: 6	F: 3	G: 0	H: -4
Nc1ccc(S(=O)(=O)c2ccc(N)cc2)cc1
  A: 3&2	B: 1.7	C: -2	D: .	E: 3	F: -1	G: -4	H: -3
CN1CCC(=C2c3ccccc3C=Cc3ccccc32)CC1
  A: -2&-2	B: 0.2	C: 5	D: 115	E: 0	F: 1	G: 1	H: -4
O=C(Nc1nnc(-c2ccccc2)o1)c1ccc(Cl)cc1
  A: .	B: 0.5	C: 2	D: 106	E: 2	F: 12	G: -5	H: 3
CN(C)CC/C=C1/c2ccccc2Sc2ccc(Cl)cc21
  A: 0&4	B: 1.5	C: 6	D: 115&105	E: -1&-14	F: 6	G: -4&1	H: -6
Clc1ccc(C(c2ccccc2Cl)C(Cl)Cl)cc1 (configuration not stated)
  A: 1	B: 2.0	C: -1	D: 100	E: 8	F: 5	G: -4	H: -6
COc1cc2c(c(OC)c1OC)-c1ccc(OC)c(=O)cc1C(NC(C)=O)CC2 (configuration not stated)
  A: -14	B: -8.1	C: -4	D: 100	E: 6	F: 4	G: -15	H: 2
CC[N+](CC)(CC)CCOc1cccc(OCC[N+](CC)(CC)CC)c1OCC[N+](CC)(CC)CC
  A: .	B: -2.3	C: 2	D: 110	E: 6	F: -6	G: 6	H: -3
CC(=O)O[C@H]1C(=O)[C@@]2(C)C([C@H](OC(=O)c3ccccc3)[C@]3(O)C[C@H](OC(=O)[C@H](O)[C@@H](NC(=O)c4ccccc4)c4ccccc4)C(C)=C1C3(C)C)[C@]1(OC(C)=O)CO[C@@H]1C[C@H]2O (some centres not stated)
  A: 2	B: 3.5	C: -1	D: 93	E: -1	F: 2	G: 9	H: -2

Following part
smiles	Wnt bcat act	LANA DNA inh	cardiac RTF act	DSG3 Ab inh	V-ATPase pHluor	RTF Ca sens inh	Arr AP2 block	Keap1 Nrf2 FP
COc1ccc2c(c1)c(CC(=O)O)c(C)n2C(=O)c1ccc(Cl)cc1	-1	-1.2	2	89	4	5	7	-3
CN[C@H]1CC[C@@H](c2ccc(Cl)c(Cl)c2)c2ccccc21	-1&-3	0.7&-0.8	1&2	110&106	-3&2	-6&5	-1&1	-2&-4
COc1cccc(OC)c1C(=O)N[C@@H]1C(=O)N2[C@@H]1SC(C)(C)[C@@H]2C(=O)O	-1	-0.2	-7	100	0	-8	-9	3
NCCCC(=O)O	-4	-4.3	5	104	-2	-2	10	-5
NS(=O)(=O)c1cc2c(cc1C(F)(F)F)NCNS2(=O)=O	-2&1	-2.0	2	100	2	3	2	0
COc1cc(NC(C)CCCN)c2ncccc2c1 (configuration not stated)	8	-6.2	5	115	-3	1	8	2
CC12C=CC(=O)C=C1CCC1C2C(=O)CC2(C)C1CCC2(O)C(=O)CO (configuration not stated)	-4	0.9	-2	.	6	14	1	-7
COc1ccc(-c2nnc(NC(=O)c3ccc(F)cc3)o2)cc1	-4	0.0	-5	103	1	-2	3	2
CCCCN(CCCC)CCC(O)c1cc2c(Cl)cc(Cl)cc2c2cc(C(F)(F)F)ccc12 (configuration not stated)	-17	0.1	1	104	3	13	15	-5
CCOC(=O)OC(C)OC(=O)[C@@H]1N2C(=O)[C@@H](NC(=O)[C@H](N)c3ccccc3)[C@H]2SC1(C)C (some centres not stated)	0	1.4	0	96	1	-8	-4	1
CCN(CC)CCNC(=O)c1cc(Br)c(N)cc1OC	-3	-1.1	4	109	1	2	1	-2
CC(=O)OCC(=O)NCCCOc1cccc(CN2CCCCC2)c1	-3	0.5	-1	104	-1	-2	1	1
C[C@@H]1C[C@H]2[C@@H]3CCC4=CC(=O)C=C[C@]4(C)[C@@]3(F)[C@@H](O)C[C@]2(C)[C@@]1(O)C(=O)COP(=O)(O)O	-1	-2.7	6	103	1	-9	-1	-6
OC1(c2ccccc2)CCN(Cc2ccccc2)CC1	-2	-1.1	9	100	3	-4	4	-3
Cc1ccc2c(c1)c1c3n2CCNC3CCC1 (configuration not stated)	1&1	-0.3&0.0	-1&-5	111&95	-2&-2	8&-8	-1&2	0&0
